HPGD inh: inhibitors of human 15-hydroxyprostaglandin dehydrogenase (HPGD); Potency, µM, without a hit: top-dose activity change, negative = inhibition, most hits filed as inhibitors; P15428; actives 4.3% (n = 150,000); purified HPGD, NADH fluorescence kinetic, PGE2 substrate; active = well fitted inhibition curve with a large enough effect (not every such curve was filed as active); inconclusive = small, poorly fitted or top-dose-only effect, or another doubt; inactive = no such curve, though single readings can be large or run the other way;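 also: top concentration of the series not given in the record; plate controls included wells without enzyme; inactives centre near -10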
Target sequence (P15428 whole entry, looked up): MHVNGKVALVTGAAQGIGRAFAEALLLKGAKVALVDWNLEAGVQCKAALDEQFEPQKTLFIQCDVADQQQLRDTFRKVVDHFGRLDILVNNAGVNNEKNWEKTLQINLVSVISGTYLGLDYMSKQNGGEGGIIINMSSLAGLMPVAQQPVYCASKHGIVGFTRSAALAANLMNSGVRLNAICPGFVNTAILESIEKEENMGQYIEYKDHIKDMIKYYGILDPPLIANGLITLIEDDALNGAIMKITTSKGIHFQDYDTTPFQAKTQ
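20 nM HPGD preincubated 15 min at room temperature with compound in 50 mM Tris-HCl pH 8, 0.01% Tween 20. Started with 1 mM NAD+ and 30 uM prostaglandin E2; NADH fluorescence (360/450 nm) read 5 times over 30-s intervals, last minus first.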
Starred values were filed as active, the others as inactive; ? = inconclusive; & = joins results of further samples. % is scaled to controls: 0 for no effect and ±100 for the full control effect; potency is read from the fitted curve at half-maximal effect. This is a subset; the hit share may differ from the screen's.

SMILES | HPGD inh
N/C(=N\OC(=O)c1cccc(F)c1)c1ccccc1 | -17%
CCCn1c(=O)c(C(=O)NCc2ccccn2)c(O)c2ccccc21 | -23%
COC(=O)C1=C(O)/C(=C\c2sccc2C)N=C1C | -11%
CCOCCCNC(=O)CN1CCN(Cc2ccccc2C)C1=O | -6%
Cc1ccccc1-c1nccc(-n2ccnc2)n1 | -28%
CC(C)(C)c1ccccc1OCC(=O)Nc1ncn[nH]1 | -15%
CCCCn1c(=O)cc(O)c2ccccc21 | -5%
CC(=O)N1CCN(c2ccc(NC(=S)NC(=O)/C=C/c3ccccc3)cc2)CC1 | -4%
CCN(CC)C(=O)N1CCN(S(=O)(=O)c2ccc(C)cc2)CC1 | -7%
Cc1ccc(C(=O)CSc2nc3cc(S(=O)(=O)N4CCOCC4)ccc3o2)cc1 | 25µM*
CC(=O)Nc1ccc(NC2=Nc3ccccc3N3C2=Nc2c(c(C)nn2-c2ccccc2)C3c2ccccc2)cc1 (centres undefined) | -8%
Cc1cccc(/C(N)=N/OC(=O)N2c3ccccc3Sc3ccccc32)c1 | 18µM*
Cc1cc(NS(=O)(=O)c2ccc(NC(=O)CN3C(=O)c4ccccc4C3=O)cc2)nc(C)n1 | -7%
Cc1cccc(CCNC(=O)C2CCN(S(=O)(=O)c3c(C)noc3C)CC2)c1 | -2%
CCC(C)(C)NC(=O)CN(C(=O)CCC(=O)Nc1cc(C)ccn1)c1ccc2c(c1)OCO2 | -7%
Cc1cc(C(F)F)n2ncc(C(=O)NCc3ccccc3F)c2n1 | -18%
O=[N+]([O-])c1ccc(Cl)c(/C=N/N2CCN(c3ccccc3)CC2)c1 | -24%
COc1cc(/C=N/Nc2nn3cnnc3c3ccccc23)cc(OC)c1OC | -7%
CCc1ccc(-c2ccc(C(=O)O)cc2)nc1 | -7%
COCC(C)NC(=O)c1cc(-c2ccc(OC)c(OC)c2)on1 (centres undefined) | -11%
CC(=O)N(Cc1ccc2c(c1)OCO2)C1CC(=O)N(CCc2ccccc2)C1=O (centres undefined) | -3%
FC(F)(F)c1ccccc1-c1cncnc1NCCc1cnc[nH]1 | -13%
Cc1ccc(-c2ccc(/C=N/N=C3/NC(=O)C(CC(=O)O)S3)o2)c([N+](=O)[O-])c1 (centres undefined) | 18µM*
CCOc1ccccc1-n1c(N)c(C(N)=O)sc1=S | -26%
Cc1nnc(NC(=O)c2ccncc2)s1 | -5%
CSC1=NC(NCCCO)c2c(sc3c2CC(C)(C)OC3)N1 (centres undefined) | ?
CC1=C(C(N)=O)C(c2ccncc2)n2nc(-c3ccccc3Cl)nc2N1 (centres undefined) | -3%
CC(CCC(=O)O)C1CCC2C3CC[C@H]4CC(O)CC[C@@]4(C)C3CC[C@@]12C (some centres undefined) | 4%
COc1ccc(C2CC(=O)C(C=NCCN3CCN(C(C)=O)CC3)=C(O)C2)cc1 (centres undefined) | -10%
CCOc1ccccc1N(CC(=O)NCC1CCCO1)C(=O)CCC(=O)Nc1ccccn1 (centres undefined) | -11%
CCN(CC)c1ccc(NC(=O)c2ccc(Br)o2)c(C)c1 | -21%
COc1ccc(-c2noc(CSc3nnc(Cc4ccccc4)n3-c3cccc(C)c3)n2)cc1OC | -14%
COc1ccc(-c2cc(C(F)(F)F)n3nc(C(=O)NCc4ccco4)c(Cl)c3n2)cc1 | ?
Cc1ccccc1Nc1nc(N)nc(CN2C(=O)NC3(CCCCC3C)C2=O)n1 (centres undefined) | 2%
Nc1ccc(S(=O)(=O)NC(=O)c2ccccc2)cc1 | -4%&-22%&-27%
COc1ccc(Cn2nnnc2C(c2ccncc2)N2CCOCC2)cc1 (centres undefined) | -1%
O=[N+]([O-])c1ccc2cn(-c3ccccc3)nc2c1 | -2%
C=CCn1c(SCC(=O)NCc2ccco2)nnc1-c1ccc2ccccc2n1 | 16µM*
CO/N=C(\C(=O)NC1C(=O)N2C(C(=O)OCOC(=O)C(C)(C)C)=C(/C=C\c3scnc3C)CSC12)c1csc(N)n1 (centres undefined) | ?
COc1ccc(NC(=O)C2CCN(S(=O)(=O)c3cccc4cccnc34)CC2)cc1 | -3%
COC(=O)[C@H](CCSC)NC(=O)Nc1cc(C)ccc1C | -5%
CCN(C(=O)CSc1nncn1-c1ccccc1)c1c(N)n(Cc2ccccc2)c(=O)[nH]c1=O | -9%
CC/C=C\C/C=C\C/C=C\C/C=C\C/C=C\CCC(=O)O[C@H](COCCCCCCCCCCCCCCCC)COP(=O)([O-])OCC[N+](C)(C)C | -3%
COc1cc(NCCC(=O)O)c2ncccc2c1 | -14%
O=C(c1cccc(F)c1)N1CCN(c2cccc(C(F)(F)F)c2)CC1 | -11%
CCOC(=O)c1cc(C#N)c(SCc2cccc3ccccc23)nc1C | -20%
Cc1ccc(NC(=O)c2cc(NC(=O)CCC(=O)O)ccc2N2CCCCC2)cc1 | -4%
O=c1nc2ccccc2c(NS(=O)(=O)c2ccccc2)n1-c1ccccc1 | -21%
O=C1[C@@H]2C(Cc3ccc(O)cc3)NC3(C(=O)Nc4ccc(F)cc43)[C@@H]2C(=O)N1c1ccc(F)cc1 (some centres undefined) | -8%
Cc1cccc(N2CCN(C(=O)Cn3cnc4c3c(=O)n(C)c(=O)n4C)CC2)c1C | 4%
Next section
SMILES | HPGD inh
O=C(Nc1cc(Cl)ccc1O)c1cc2n(n1)C(C(F)(F)F)CC(c1ccc3c(c1)OCO3)N2 (centres undefined) | -9%
CC1(O)C(=O)C=C2C=C(c3ccsc3)OC=C2C1=O (centres undefined) | -1%
Cc1ccc(C(=O)c2cc3c(cc2N)OCCO3)cc1 | -11%
COc1cc(/C=N/NC(=O)CNC(=O)c2ccccc2)ccc1OC(=O)c1cccs1 | -14%
Cc1nn(-c2ccccc2)c(C)c1C(=O)OCC(=O)c1c(N)n(CC(C)C)c(=O)n(C)c1=O | -12%
COc1cccc(CSc2nnc(-c3ccc(F)cc3)o2)c1 | -16%
Cc1ccc(-n2ncc3c(=O)n(CC(=O)Nc4cccc(Cl)c4)cnc32)cc1C | ?
Cc1ccc(-n2nc3c(=S)[nH]nc(C)c3c2C)cc1 | -10%
Cc1cccc2cc(C(c3nnnn3CC3CCCO3)N3CCCC4(CCCCC4)C3)c(=O)[nH]c12 (centres undefined) | -11%
O=C1c2ccsc2SCCN1Cc1cccc(Cl)c1 | ?
CCCCC(=O)Nc1nnc(SCC(=O)N2CCN(c3ccccc3OC)CC2)s1 | -6%
COc1c(Cl)cc(C(=O)Nc2ccccc2-c2ccccc2)cc1Cl | -20%
Cc1nc2sc3c(c2c2nnc(SCC(=O)NCc4ccco4)n12)CCCC3 | 28µM*
CCC(C)(C)C(=O)O | 3%
CCCC(=O)Nc1ccc(Cl)c(NC(=O)c2ccco2)c1 | -9%
COc1cccc(CN2CCN(c3ncccn3)CC2)c1 | -8%
O=C1CSC(c2cn(-c3ccccc3)nc2-c2cc3ccccc3oc2=O)N1Cc1cccnc1 (centres undefined) | ?
Cc1ccc(N2C(=O)CSC2c2c(F)cccc2Cl)cc1 (centres undefined) | -1%
COc1cc2c(cc1OC)CN(C(=O)CSc1nc3[nH]ncc3c(=O)n1-c1ccccc1)CC2 | -14%
CCCNC(=O)c1ccc(C2SCC(=O)N2Cc2ccccc2)cc1 (centres undefined) | 3.2µM*
CNC1=C(Cl)C(=O)c2ccncc2C1=O | -3%
O=C(O)CN1C(=O)c2ccc(Oc3cccc4c3C(=O)N(CC(=O)O)C4=O)cc2C1=O | -7%
CN(C)c1ccc(-c2ccc3ncnc(NCc4ccccc4)c3c2)cc1 | ?
Cc1ccc(S(=O)(=O)N2CCCCC2)cc1NC(=O)COC(=O)Cc1c(F)cccc1Cl | -8%
NC(=O)C1CCN(C(=O)c2cc3ccccn3n2)CC1 | -12%
CC(=O)/C(=N\Nc1cccc(Cl)c1)Sc1nnc(-c2ccccc2)n1-c1ccccc1 | -11%
O=C(C(Cc1ccccc1)N1C(=O)c2ccccc2C1=O)N1c2ccccc2CCc2ccccc21 (centres undefined) | -10%
O=C(Cn1nc(-c2ccccc2)nc1-c1ccccc1)N1CCOCC1 | -8%
COc1cc2c(cc1C(F)(F)F)N(C(=O)Nc1cc(F)cc(-c3cccnc3)c1)CC2 | -11%&-17%
CN(C)S(=O)(=O)N(CCN1CCOCC1)Cc1ccccc1F | -2%
O=C(NC1CCN(Cc2ccccc2)CC1)c1ccccc1F | -3%
Cc1ccc(F)cc1NC(=O)c1ccc(NS(=O)(=O)c2ccc(Br)s2)cc1 | -1%
CN(C)CCCNS(=O)(=O)c1cc(Cl)ccc1Cl | -2%
O=C(NCCCN1CCCC1)C1CCN(C(=O)c2cc3sccc3n2Cc2ccc(F)cc2)CC1 | -3%
Cc1oc(-c2ccc(Cl)cc2)nc1CN1CCC(C(=O)NCCCN2CCCC2=O)CC1 | 2%
CC(C)C1CC(O)(C2(O)CCCCC2)ON1 (centres undefined) | -3%
COc1ccc(C2C(C(C)=O)=C(O)C(=O)N2CCO)c(OC)c1 (centres undefined) | -9%
COc1cc(CNC2CCCCCC2)cc(OC)c1OC | -2%
CCN1CCCC1CNC(=O)c1cc(NC(C)=O)c(N(C)C)cc1OC (centres undefined) | -10%
Cc1ccc(C)c(NC(=O)C2CCCN2C(=O)OC(C)(C)C)c1 (centres undefined) | -7%
O=C(NC1CCc2ccccc21)C1CCN(S(=O)(=O)c2ccc(Cl)cc2)CC1 (centres undefined) | -20%
CNc1ccccc1 | -10%
COc1ccc(Oc2coc3cc(OC(=O)c4cncc(Br)c4)ccc3c2=O)cc1 | -14%
O=C(NNS(=O)(=O)c1ccc(CCCl)cc1)C(O)(c1ccccc1)c1ccccc1 | -2%
CC(C)[C@@H](CC(=O)N[C@@H]1CCCC[C@H]1C(=O)N[C@H](CC(=O)N[C@@H](CCC(=O)O)CC(=O)O)Cc1c[nH]c2ccccc12)NC(=O)C[C@H](CO)NC(=O)[C@@H]1CCCC[C@H]1N | -13%
Cc1cc(NC(=O)CCN2C(=O)C3C4CCC(C4)C3C2=O)cc(C)c1Br (centres undefined) | -9%
Cc1occc1-c1nnc(SCC(=O)NCc2ccc3c(c2)OCO3)n1CC(C)C | -12%
COC(=O)CCC(=O)OC1(C)C(=O)C=C2C=C(C3CC3)N(CCCOC(C)C)C=C2C1=O (centres undefined) | -6%
Cc1ccccc1-c1cc(C(=O)n2cccn2)c2cc(Cl)ccc2n1 | -28%
CC(=O)c1cccc(N(C(=O)Cn2nnc3ccccc32)C(C(=O)NCc2ccccc2)c2ccccn2)c1 (centres undefined) | -14%
(continued)
SMILES | HPGD inh
COc1ccc2[nH]c(=O)c(C(c3nnnn3CC3CCCO3)N3CCc4ccccc4C3)cc2c1 (centres undefined) | ?
CC(C)C(NC(=O)C1CCCCC1)C(=O)NCc1ccccn1 (centres undefined) | -6%
N/N=C1/c2ccccc2N[C@H]1OC(=O)Nc1cccc(Cl)c1 | -5%
CSc1nc(NCC(C)C)nc(N2CCOCC2)n1 | 0%
COc1ccccc1N1C(=O)C2C3C=CC(C3)C2C1=O (centres undefined) | -10%
C/C(N)=C(/C#N)C(=O)COc1ncnc2ccc(Br)cc12 | -1%
C=CCN(c1ccccc1)S(=O)(=O)c1cccc(C(=O)Nc2nc3ccccc3[nH]2)c1 | ?
O=C(CNC(=O)c1ccc(Cl)cc1)OCC(=O)c1ccc2c(c1)OCCO2 | -3%
CC1(C)Cc2c(sc3nc(N/N=C/c4ccccc4)[nH]c(=O)c23)CO1 | ?
Cc1ccc(N=C2CCCN2Cc2ccccc2)c(C#N)c1 | 1%
CN1CCN(C2=C(Cl)C(=O)N(C3CCCCC3)C2=O)CC1 | -12%
COc1ccc2c(-c3ccccc3)cc(=O)[nH]c2c1 | ?
O=C(CNS(=O)(=O)c1ccc(Br)s1)NC1CCCc2ccccc21 (centres undefined) | -6%
CC(C)(C)n1nc2c(c1NC(=O)c1ccc(S(=O)(=O)N3CCCC3)cc1)CSC2 | -8%
CCOc1ccc(NC(=O)Cc2cccc3ccccc23)c([N+](=O)[O-])c1 | -6%
CC1CCCC(C)N1S(=O)(=O)c1ccc(NC(=O)CCn2cnc3ccccc3c2=O)cc1 (centres undefined) | -2%
Cc1cc(N2CCOCC2)nc2ccccc12 | ?

Filtered by structure, those above containing fluorine.
SMILES | HPGD inh
N/C(=N\OC(=O)c1cccc(F)c1)c1ccccc1 | -17%
Cc1cc(C(F)F)n2ncc(C(=O)NCc3ccccc3F)c2n1 | -18%
FC(F)(F)c1ccccc1-c1cncnc1NCCc1cnc[nH]1 | -13%
COc1ccc(-c2cc(C(F)(F)F)n3nc(C(=O)NCc4ccco4)c(Cl)c3n2)cc1 | ?
O=C(c1cccc(F)c1)N1CCN(c2cccc(C(F)(F)F)c2)CC1 | -11%
O=C1[C@@H]2C(Cc3ccc(O)cc3)NC3(C(=O)Nc4ccc(F)cc43)[C@@H]2C(=O)N1c1ccc(F)cc1 (some centres undefined) | -8%
O=C(Nc1cc(Cl)ccc1O)c1cc2n(n1)C(C(F)(F)F)CC(c1ccc3c(c1)OCO3)N2 (centres undefined) | -9%
COc1cccc(CSc2nnc(-c3ccc(F)cc3)o2)c1 | -16%
Cc1ccc(N2C(=O)CSC2c2c(F)cccc2Cl)cc1 (centres undefined) | -1%
Cc1ccc(S(=O)(=O)N2CCCCC2)cc1NC(=O)COC(=O)Cc1c(F)cccc1Cl | -8%
COc1cc2c(cc1C(F)(F)F)N(C(=O)Nc1cc(F)cc(-c3cccnc3)c1)CC2 | -11%&-17%
CN(C)S(=O)(=O)N(CCN1CCOCC1)Cc1ccccc1F | -2%
O=C(NC1CCN(Cc2ccccc2)CC1)c1ccccc1F | -3%
Cc1ccc(F)cc1NC(=O)c1ccc(NS(=O)(=O)c2ccc(Br)s2)cc1 | -1%
O=C(NCCCN1CCCC1)C1CCN(C(=O)c2cc3sccc3n2Cc2ccc(F)cc2)CC1 | -3%

Screening results as filed in PubChem BioAssay.
